Polio RdRp inh: inhibitors of poliovirus RNA polymerase binding and polymerization; P03300; poliovirus polymerase elongation, fluorescence polarization; hits give low values; % elongation, % (compound at 16.7 µg/mL); 150,000 tested, 0.66% active; in the data active = % elongation below about 90%; note: some results filed as inactive read as strong as hits
Target sequence (P03300 1749-2209 limits assumed): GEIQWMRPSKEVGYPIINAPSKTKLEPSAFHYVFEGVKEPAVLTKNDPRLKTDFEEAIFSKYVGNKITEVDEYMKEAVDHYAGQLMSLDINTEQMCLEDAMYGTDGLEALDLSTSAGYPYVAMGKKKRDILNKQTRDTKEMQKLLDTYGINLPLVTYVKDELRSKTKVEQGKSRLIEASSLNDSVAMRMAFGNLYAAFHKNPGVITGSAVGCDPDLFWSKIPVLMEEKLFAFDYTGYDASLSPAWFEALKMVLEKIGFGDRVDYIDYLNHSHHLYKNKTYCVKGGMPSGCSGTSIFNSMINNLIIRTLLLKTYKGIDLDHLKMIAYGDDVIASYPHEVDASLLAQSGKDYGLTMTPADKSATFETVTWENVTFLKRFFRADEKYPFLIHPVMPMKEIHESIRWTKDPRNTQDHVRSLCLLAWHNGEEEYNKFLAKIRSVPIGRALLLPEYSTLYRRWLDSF
Polio RdRp inh intensity: also measured in Polio RdRp inh; calls as there; % elongation; measured here: total intensity read-out; formula for this scale not given here;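 total fluorescence in place of polarization; lower means less elongation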
Active calls of the source: *. An excerpt; the hit share may differ from the screen's.

#	mol	Polio RdRp inh	Polio RdRp inh intensity
1	CCn1c(C(=O)Nc2ccccc2C(=O)OC)cc2sc(Cl)cc21	103	99
2	O=C(CNC(=O)c1ccccc1)OCc1cc(=O)n2ccsc2n1	107	111
3	COc1ccc(OC)c(CNC(=O)C2CCN(S(=O)(=O)N3CCCCC3)CC2)c1	114	115
4	CCOC(=O)c1ccc(NC(=O)COCc2cc(-c3ccc4c(c3)OCO4)on2)cc1	113	115
5	Cc1sc2ncn(CC(=O)N3CCN(c4ccc(F)cc4)CC3)c(=O)c2c1S(=O)(=O)N1CCN(c2ncccn2)CC1	105	111
6	COCCn1c(C)cc(O)c(C(c2ccccc2)N2CCN(c3ccccc3F)CC2)c1=O (stereo unspecified)	111	98
7	O=c1cc(-c2ccccc2)nc(SCc2nc(-c3ccc(Cl)cc3)no2)[nH]1	102	110
8	CCc1ccc2oc(C(=O)N(Cc3ccc(N(C)C)cc3)Cc3ccco3)c(C)c2c1	105	111
9	CCS(=O)(=O)NCCc1csc2nc(-c3ccc(OC)cc3)nn12	113	110
10	Cn1c(=O)c2sccc2n2c(CCCC(=O)NCc3ccccc3)nnc12	102	96
11	Cc1nc2c(-c3ccccc3)c(C)nn2c(C)c1CCC(=O)Nc1ccccc1F	110	110
12	CCOC(=O)c1cc2c(=O)n3ccccc3nc2n(Cc2ccco2)c1=NC(=O)c1ccc(C)c(C)c1	106	111
13	COc1ccc(C(=O)c2oc3ccccc3c2NC(=O)COc2ccccc2)cc1	106	110
14	CCOc1cc2[nH]c(=O)n(Cc3ccc(C(=O)NCCN(CC)CC)cc3)c(=O)c2cc1OCC	104	97
15	O=C(Cc1ccc(Cl)cc1)Nc1ccc2nn(-c3ccc(Cl)cc3)nc2c1	107	110
16	CCCCC(=O)Oc1ccc2oc(-c3ccc(OC)cc3)cc(=O)c2c1	101	105
17	COc1ccc(-n2nc(C(=O)Nc3cc(OC)c(OC)c(OC)c3)c(=O)n(C)c2=O)cc1	108	101
18	Cc1ccccc1-c1nc(CN2CCC(C(=O)NCCc3ccccc3)CC2)c(C)o1	110	113
19	CN(Cc1ccccc1)C(=O)c1ccc2c(c1)N(Cc1ccccc1Cl)C(=O)c1ccccc1S2	102	105
20	COc1ccc(OC)c(NC(=O)Cn2ccn(-c3ccc(OC)c(OC)c3)c(=O)c2=O)c1	105	112

Ordered by formula weight (low to high): part of the list above
#	mol	Polio RdRp inh	Polio RdRp inh intensity
7	O=c1cc(-c2ccccc2)nc(SCc2nc(-c3ccc(Cl)cc3)no2)[nH]1	102	110
11	Cc1nc2c(-c3ccccc3)c(C)nn2c(C)c1CCC(=O)Nc1ccccc1F	110	110
8	CCc1ccc2oc(C(=O)N(Cc3ccc(N(C)C)cc3)Cc3ccco3)c(C)c2c1	105	111
14	CCOc1cc2[nH]c(=O)n(Cc3ccc(C(=O)NCCN(CC)CC)cc3)c(=O)c2cc1OCC	104	97

Going on with the list:
#	mol	Polio RdRp inh	Polio RdRp inh intensity
21	O=C(C1CCN(S(=O)(=O)c2cccs2)CC1)N1CCN(c2cccc(Cl)c2)CC1	104	104
22	Cc1ccc(C)c(-n2c(N)c(C#N)c3nc4ccccc4nc32)c1	107	105
23	Cc1ccc(NC(=O)Cn2cc(S(=O)(=O)c3ccc(F)cc3)c(=O)c3cc4c(cc32)OCO4)cc1	107	108
24	Cc1cccc(N2CCN(C(=O)Cn3c(=O)c4cccn4c4ccc(F)cc43)CC2)c1C	104	105
25	COc1ccccc1CNC(=O)c1ccc2nc(-c3ccccc3)c(-c3ccccc3)nc2c1	114	114
26	COc1ccc(NC(=O)CNS(=O)(=O)c2cccs2)c(OC)c1	97	108
27	Cc1ccc(CCNC(=O)c2cc3c(s2)-c2ccccc2OC3)cc1	104	108
28	CCCCN(CC)C(=O)CSc1nc2ccccc2c(=O)n1Cc1ccco1	110	109
29	CCc1ccc(C2C(C(=O)Nc3ccc(Cl)cc3)=C(C)Nc3ncnn32)cc1 (stereo unspecified)	101	104
30	CCCCN(c1ccccc1)S(=O)(=O)c1cc2c3c(c1)C(C)C(=O)N3CCC2 (stereo unspecified)	105	106
31	CCC(C)NC(=O)Cn1c(=O)n(Cc2ccc(C(=O)NCc3ccc(C)cc3)cc2)c(=O)c2ccccc21 (stereo unspecified)	116	112
32	COc1ccc(CCNC(=O)c2ccc(Cn3c(SCC(=O)NCCC(C)C)nc4cc5c(cc4c3=O)OCO5)cc2)cc1OC	100	94
33	CNS(=O)(=O)c1cn(CC(=O)N2CCN(c3ccc(OC)cc3)CC2)cc1S(=O)(=O)NC	103	110
34	Cc1ccc2oc(-c3ccc(Cl)c(NC(=O)c4ccc(OC(C)C)cc4)c3)nc2c1	103	101
35	COC(=O)c1ccc(NC(=O)C(=O)NCC(c2cccnc2)N2CCc3ccccc32)cc1 (stereo unspecified)	114	108
36	COc1ccc(CCNC(=O)Cn2cc(C(=O)c3ccccc3)c(=O)c3ccc(C)nc32)cc1OC	116	108
37	COc1cccc(C(=O)NCc2nc(-c3ccccc3)no2)c1OC	109	114
38	Cc1nn2c(-c3ccco3)ccnc2c1-c1ccc(Cl)cc1	108	114
39	CCOc1ccc(CC(=O)NCCc2csc(-c3ccc(C(F)(F)F)cc3)n2)cc1	107	111
40	CCN(CC)c1ccc(CN(C(=O)Cc2coc3ccc(C)cc23)C2CCS(=O)(=O)C2)cc1 (stereo unspecified)	119	115
41	COc1ccc(NC(=O)C2=C(C)Nc3ncnn3C2c2sccc2C)cc1 (stereo unspecified)	107	114
42	CCCSc1ncc(Cl)c(C(=O)Nc2c(C(=O)c3ccc(F)cc3)oc3ccccc23)n1	110	112
43	CC(C)CCn1c(=O)c2sccc2n2c(CCCC(=O)NC3CCC(C)CC3)nnc12 (stereo unspecified)	114	120
44	Cc1ccc(CNC(=O)c2nc(SCc3ccc(F)cc3)ncc2Cl)cc1	102	106
45	CCC(=O)N1CCc2cc(Br)cc(S(=O)(=O)CCC(=O)N3CCN(c4ccccc4F)CC3)c21	107	110
46	CSc1ccc(CNC(=O)c2sc3ncnc(N(C)C4CCCCC4)c3c2C)cc1	94	97
47	Cc1sc2c(c1C)c(=O)n(-c1ccc(Cl)cc1)c(=O)n2Cc1cc(=O)n2cc(Br)ccc2n1	110	111
48	COc1cccc(-n2c(SCC(=O)c3ccc(Cl)cc3)nc3c([nH]c4ccccc43)c2=O)c1	101	108
49	Cc1ccc(Cl)cc1NC(=O)c1cccc(NC(=O)N2CCSc3ncccc32)c1	101	89
50	CCc1ccccc1NC(=O)C1CCN(c2nc3ccccc3[nH]2)CC1	110	116
51	CCc1nn(CC(=O)NCc2ccc(C)cc2)c(=O)c2cc3occc3n12	72*	74*
52	O=C(Nc1ccc2nc(SCC(=O)N3CCc4ccccc43)sc2c1)c1ccccc1F	108	89
53	Cc1nn2c(=O)cc(COC(=O)c3cccc(NC(=O)CCc4ccccc4)c3)nc2s1	105	110
54	Cc1ccc(S(=O)(=O)C(CNC(=O)c2ccccc2F)c2cccs2)cc1 (stereo unspecified)	104	107
55	O=C1CC(c2ccccc2)Cc2[nH]c(=O)c(C(=O)Nc3cccc(F)c3)cc21 (stereo unspecified)	115	115
56	CCOC(=O)c1c(C)n(-c2ccccc2)c2ccc(OC(=O)c3ccccc3Cl)cc12	108	113
57	CCOC(=O)c1c(SCC(=O)Nc2cccc(C)c2C)nc(=O)[nH]c1C	111	108
58	Cc1ccc(NC(=O)C2CCCN(S(=O)(=O)c3ccc4c(c3)CCCC(=O)N4)C2)cc1N(C)C (stereo unspecified)	111	113
59	COc1ccc(OC(=O)CSc2nnc(-c3ccc(F)cc3)o2)cc1	111	105
60	CCc1cccc(C)c1NC(=O)Cn1cc2c(n1)CCCCC2	108	108

Structures from the list above that contain an NH in an aromatic ring (six):
#	mol	Polio RdRp inh	Polio RdRp inh intensity
7	O=c1cc(-c2ccccc2)nc(SCc2nc(-c3ccc(Cl)cc3)no2)[nH]1	102	110
14	CCOc1cc2[nH]c(=O)n(Cc3ccc(C(=O)NCCN(CC)CC)cc3)c(=O)c2cc1OCC	104	97
48	COc1cccc(-n2c(SCC(=O)c3ccc(Cl)cc3)nc3c([nH]c4ccccc43)c2=O)c1	101	108
50	CCc1ccccc1NC(=O)C1CCN(c2nc3ccccc3[nH]2)CC1	110	116
55	O=C1CC(c2ccccc2)Cc2[nH]c(=O)c(C(=O)Nc3cccc(F)c3)cc21 (stereo unspecified)	115	115
57	CCOC(=O)c1c(SCC(=O)Nc2cccc(C)c2C)nc(=O)[nH]c1C	111	108

The listing picks up with the five entries that preceded the break.
#	mol	Polio RdRp inh	Polio RdRp inh intensity
56	CCOC(=O)c1c(C)n(-c2ccccc2)c2ccc(OC(=O)c3ccccc3Cl)cc12	108	113
57	CCOC(=O)c1c(SCC(=O)Nc2cccc(C)c2C)nc(=O)[nH]c1C	111	108
58	Cc1ccc(NC(=O)C2CCCN(S(=O)(=O)c3ccc4c(c3)CCCC(=O)N4)C2)cc1N(C)C (stereo unspecified)	111	113
59	COc1ccc(OC(=O)CSc2nnc(-c3ccc(F)cc3)o2)cc1	111	105
60	CCc1cccc(C)c1NC(=O)Cn1cc2c(n1)CCCCC2	108	108
61	COc1ccc(Cl)cc1NC(=O)CN1C(=O)CSc2ccc(S(=O)(=O)N3CCCC3)cc21	109	102
62	Cc1ccccc1-c1nc(CS(=O)CC(=O)NCCc2ccc(Cl)cc2)c(C)o1 (stereo unspecified)	109	107
63	CCOC(=O)N1CCC(NC(=O)c2ccc3c(c2)N(Cc2ccc(Cl)cc2)C(=O)c2ccccc2S3(=O)=O)CC1	105	106
64	CCOc1ccc(S(=O)(=O)NCc2cccn2Cc2cccc(C)c2)cc1	110	110
65	CCc1ccc(Nc2ncnc3c2cnn3-c2cc(Cl)ccc2C)cc1	106	107
66	Cc1cccn2c(=O)c(C(=O)NCCc3ccc(Cl)cc3)cnc12	104	110
67	COC(=O)c1ccc(NC(=O)CCc2c(C)nn(-c3ccc(N4CCCCC4)nn3)c2C)cc1	113	113
68	COc1cccc(NC(=O)CSCn2nnc3c(=O)[nH]c(Cc4ccc(F)cc4)nc32)c1	111	106
69	Cc1ccc(S(=O)(=O)N2CCN(Cc3ccc4c(c3)OCO4)CC2)cc1	108	104
70	COc1ccc2c(CNCCc3cccs3)c(C(=O)O)n(Cc3cccc(F)c3)c2c1	112	109
71	CCC(=O)C1=C(c2ccc(C)cc2)N(C(=O)CC)n2c(nnc2C2CCCCC2)S1	105	111
72	CCN1C(=O)C(Cc2nc3ccccc3c(=O)n2-c2ccc(OC)cc2)c2cc(C)ccc21 (stereo unspecified)	103	109
73	COc1ccc(C2C=C(c3cccc(OC)c3)Nc3c(C(=O)Nc4ccccc4)cnn32)cc1 (stereo unspecified)	102	123
74	CCOC(=O)c1ccc(NC(=O)c2c(NCc3sccc3C)sc3c2CCCCC3)cc1	118	131
75	COc1cccc(Cn2c(=O)n(CC3CCC(C(=O)N4CCCCC4)CC3)c(=O)c3sccc32)c1 (stereo unspecified)	101	103
76	CN(C1CCCCC1)S(=O)(=O)c1ccc2c(c1)c(=O)c(C(=O)NCCc1ccc(Cl)cc1)cn2C	105	110
77	O=C(CCn1c(=O)c2cccn2c2cccnc21)N1CCN(c2cccc(Cl)c2)CC1	104	105
78	COc1ccc(N2CCN(C(=O)c3cc(NS(=O)(=O)c4ccc(F)cc4)ccn3)CC2)cc1	99	105
79	COc1ccc(C(=O)CCC(=O)Nc2ccc(C)c(Cl)c2)cc1	109	112
80	Cc1ccc2oc(=O)c3cc(C(=O)Nc4ccc(C)c(F)c4)sc3c2c1	104	103
81	O=C(Nc1ccc(Cl)cc1)c1cc2nc(-c3ccc4c(c3)OCO4)cc(C(F)(F)F)n2n1	108	112
82	COc1ccc(CCNC(=O)c2csc3c2CCCCC3)c(OC)c1	99	105
83	CCOc1ccc(S(=O)(=O)NCCc2sc3nc(-c4ccc(F)cc4)nn3c2C)cc1	113	108
84	O=C(O)CCc1ccc(-c2ccccc2)n1-c1cccc(Br)c1	113	111
85	Cc1ccc(C(=O)c2cn(Cc3cccc(F)c3)c3nc(C)ccc3c2=O)cc1	112	116
86	Cc1ccc(-n2c(=O)c3c(C)c(C)sc3n(Cc3ccc(F)cc3Cl)c2=O)cc1C	103	106
87	CC(NC(=O)CCc1cn(Cc2ccccc2Cl)c2ccccc12)c1ccccc1 (stereo unspecified)	112	107
88	COc1ccccc1-c1noc(CCCC(=O)Nc2cc(C)ccc2C)n1	110	112
89	Cc1cccc(NC(=O)Cn2c(=O)n(CCCCCC(=O)NCc3ccc4c(c3)OCO4)c(=O)c3sccc32)c1	107	108
90	CCSc1ncc(Cl)c(C(=O)Nc2ccc(S(=O)(=O)N(C)c3ccccc3)cc2)n1	114	110
91	COc1ccc(COC(=O)c2[nH]c3c(c2C)C(=O)CC(c2ccc(OC)c(OC)c2)C3)cc1 (stereo unspecified)	107	111
92	Cc1cccc(-c2noc(CN(C(=O)c3ccc(C)c(C)c3)C(C)C)n2)c1	105	111
93	COc1ccc(NC(=O)c2cc(S(=O)(=O)N3CCOCC3)cn2C)cc1Cl	95	88
94	CSc1oc(-c2ccc(F)cc2)nc1S(=O)(=O)c1ccc(Br)cc1	108	110
95	COc1ccc(-n2c(=O)c3c4c(sc3n3c(SCCC(C)C)nnc23)COC(C(C)C)C4)cc1 (stereo unspecified)	105	108
96	CCOC(=O)C1CCN(C(=O)c2cc3ccc4ccc(C)[nH]c4c3n2)CC1	105	114
97	O=C(c1nc(-c2ccc(Cl)cc2)n2c1CCCCC2)N1CCN(c2ccccc2F)CC1	109	107
98	CCC(=O)N1CCc2cc(S(=O)(=O)NC(C(=O)NCc3ccccc3Cl)C(C)C)ccc21 (stereo unspecified)	106	107
99	Cc1cc(C)cc(-n2c(SCC(=O)Nc3cccc(F)c3)nc3c([nH]c4ccccc43)c2=O)c1	107	113
100	CCCN(C(=O)C1CCN(S(=O)(=O)c2c(C)noc2/C=C/c2ccc(C)cc2)CC1)c1ccccc1F	100	103
101	CCOc1ccc(C2C(C(=O)Nc3ccccc3OC)=C(C)Nc3c(C(=O)Nc4cccc(C)c4)cnn32)cc1 (stereo unspecified)	108	99
